# gsp ag – agonists of gsp mutant (McCune-Albright syndrome); actives 0.13% (n = 340,000); Potency, µM (titrated, usually from 76.9 µM), for the others: top-dose activation (cAMP increase), actives largely listed as activators; gsp mutant cells, cAMP HTRF, 30 min; control for the full effect not named in the record; AID 624287; active = well fitted activation curve with a large enough effect; inconclusive = small, poorly fitted or top-dose-only effect, or another doubt; inactive = no such curve, though single readings can be large or run the other way; cell line not stated here;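 note: phosphodiesterase inhibitor Ro 20-1724 added with compounds to block cAMP breakdown; potency is the fitted concentration of half-maximal effect; nearly all actives have a fitted effect of over 60% in size; about a fifth of the inactives were tested at one dose only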
#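 Cells in DMEM/10% FBS with G418 were pretreated with compounds in DMSO plus […] (300 uM stock) for 30 min at 37C. cAMP was measured by HTRF (cAMP-d2 plus anti-cAMP antibody-K) after 30 min at room temperature.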
# Menin MLL FP FL – displaces fluorescein MLL peptide from human menin | Fluorescence polarization, fluorescein-MLL peptide displacement from menin | FP activity change, % at 61.4 µM | 290,000 tested, under 10 active | AID 1766; inconclusive = falling polarisation curve, or a change in total fluorescence; inactive = total fluorescence flat and polarisation flat or rising; no compound was filed as active; the % refers to the polarisation; negative = inhibition;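 note: % of control where 0% means no effect; inhibitors lower the polarisation; unlabelled MLL peptide was the positive control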
# D2 potentiator – potentiates the human D2 dopamine receptor allosterically. DiscoveRx D2 beta-arrestin cells, luminescence, 90 min; 100% = 57 uM dopamine signal. potentiation, % (test concentration not listed). P14416. actives 0.23% (n = 360,000); active = potentiation of 50% or more; inconclusive = 30% to 50%; inactive = 30% or less;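 note: compound concentration not given in the record; tested on top of an EC20 dose of dopamine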
# Target sequence (P14416 whole entry, looked up): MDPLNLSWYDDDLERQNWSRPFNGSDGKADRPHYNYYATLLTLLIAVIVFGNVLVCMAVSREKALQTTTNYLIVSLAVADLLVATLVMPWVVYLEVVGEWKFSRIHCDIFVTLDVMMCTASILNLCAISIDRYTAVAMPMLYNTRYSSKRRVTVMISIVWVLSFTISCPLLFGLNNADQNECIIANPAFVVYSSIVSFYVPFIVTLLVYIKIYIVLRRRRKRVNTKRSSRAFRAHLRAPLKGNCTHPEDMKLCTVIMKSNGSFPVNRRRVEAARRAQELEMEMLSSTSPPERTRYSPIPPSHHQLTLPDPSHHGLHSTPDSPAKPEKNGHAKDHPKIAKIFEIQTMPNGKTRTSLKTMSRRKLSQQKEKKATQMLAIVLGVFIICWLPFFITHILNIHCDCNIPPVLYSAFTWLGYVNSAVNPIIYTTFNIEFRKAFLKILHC
#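 PathHunter D2 cells, attached overnight at 37 deg C, received compound in DMSO plus dopamine at EC20 (50 nM final) for 90 min at 37 deg C. Beta-arrestin recruitment was read as luminescence after 1 h with detection reagent at ambient temperature.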
# ClpP mod – qHTS Assay for Activators of ClpP; purified B. subtilis ClpP, FRET peptide cleavage, 20 min; Potency, µM (doses to about 57.5 µM), without a hit: at the top dose activity change, negative = active; actives 1.9% (n = 340,000); AID 651965, 2013; active = well fitted falling curve with a large enough effect; inconclusive = small, poorly fitted or top-dose-only effect; inactive = no such curve, though single readings can be large or run the other way; note: potency is the fitted concentration of half-maximal effect; the source files actives as falling curves though it sought activators and does not explain the sign; nearly all actives have a fitted effect of over 65% in size; many hits overshoot -100%
# Target sequence (P80244 whole entry, looked up): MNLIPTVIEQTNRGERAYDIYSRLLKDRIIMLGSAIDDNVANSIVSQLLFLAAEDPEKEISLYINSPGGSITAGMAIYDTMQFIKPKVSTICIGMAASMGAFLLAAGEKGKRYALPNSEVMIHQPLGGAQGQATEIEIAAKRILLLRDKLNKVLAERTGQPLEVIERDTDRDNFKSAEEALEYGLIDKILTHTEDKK
#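 Purified B. subtilis ClpP, 10 microg/mL final in Tris/HCl pH8 with KCl, BSA, glycerol and Tween-20, cleaved an Abz/nitrotyrosine-quenched decapeptide. Fluorescence (ex 320, em 430) was read at 0 and 20 min at room temperature. Delta was normalized to 5.8 microM ADEP and DMSO/no-enzyme controls.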
# TRPV1 PAM – potentiators of human vanilloid receptor 1 (TRPV1) | actives 0.02% (n = 320,000) | AID 540277 | TRPV1-expressing cells, Fluo-8 calcium influx, capsaicin EC20 potentiation; host cell line not named in the record; control for the full effect not named in the record | Q8NER1 | potentiation, % at 8.33 µM; active means potentiation above 80%; inconclusive means 30% to 80%; inactive means below 30%; note: 0% is about no effect
#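 Cells expressing TRPV1 were dye-loaded with Fluo-8 and read kinetically: 10 s baseline, 3 min after compound (agonist portion), then 2 min after EC20 capsaicin (allosteric enhancer portion). Calcium-bound dye fluorescence at 480/520 nm.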
# gsp antagonist – gsp mutant antagonism. gsp-mutant cells, cAMP HTRF, 30 min; control for the full effect not named in the record. Potency, µM (titrated, usually from 76.9 µM), for the others: at the highest dose activity change, negative = inhibition, usual class: inhibitors. actives 0.4% (n = 340,000). AID 624288; active = falling curve of any shape with a large fitted effect; inconclusive = falling curve, mostly with a smaller effect; inactive = flat or rising curve; cell line not stated here;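 note: intracellular cAMP measured with PDE inhibitor Ro 20-1724 present during compound exposure; potency is the fitted concentration of half-maximal effect; % is set by controls: 0 for no effect and ±100 for the full control effect; nearly all actives have a fitted effect of over 65% in size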
#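 G418-selected cells were plated in DMEM/10% FBS for 16-24 h at 37C, then treated with compounds plus the PDE inhibitor […] (300 uM solution added) for 30 min at 37C. Intracellular cAMP was measured by HTRF after 30 min lysis at room temperature.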
# Sfp PPTase inh – Sfp phosphopantetheinyl transferase inhibition; Q9F4F7; Biochemical Sfp PPTase activity, qHTS; Potency, µM, without a hit: max response, negative = inhibition, usual class: inhibitors; actives 3.5% (n = 310,000); AID 1490; active = well fitted inhibition curve with a large enough effect; inconclusive = small, poorly fitted or top-dose-only effect, or another doubt; inactive = no such curve, though single readings can be large or run the other way;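 note: the enzyme is Sfp with the accession as filed and its product quenches rhodamine fluorescence; potency is the fitted concentration of half-maximal effect; 0% = enzyme reaction without inhibitor and -100% = no enzyme wells; top concentration of the series not given in the record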
#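 Sfp 15 nM + cpd, 15 min RT; start w/ rhodamine-CoA 5 uM, BHQ-2-YbbR 12.5 uM (final); 50 mM Hepes pH 7.6, 10 mM MgCl2, 0.01% NP-40, 0.01% BSA; read 525/598 nm at 0 and 30 min.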
# * marks the source's active call; other numbers are inactive results; ? = inconclusive; . = not tested or not shown; & = joins results of further samples; [ ] = another dose, or the depositor's remark.
SMILES,gsp ag,Menin MLL FP FL,D2 potentiator,ClpP mod,TRPV1 PAM,gsp antagonist,Sfp PPTase inh
COc1ccccc1NC(=O)CSc1nnc(CNC(=O)c2ccccc2F)o1,-42%[inhibitor],.,-8,0.9%,9,2%,15%
COc1cccc(N2CC(O)Cn3c2nc2c3c(=O)n(CCCc3ccccc3)c(=O)n2C)c1 (stereo not given),8%,14,3,-3.9%,?,-8%,6%
CCOC(=O)Cc1ccc(NCc2ccc(Cl)cc2)cc1,7%[15.4 µM],1.3,-18,0.5%,-5,2%,-15%
CCOC(=O)CN1CC23C=CC(O2)C(C(=O)Nc2ccc4c(c2)OCO4)C3C1=O (stereo not given),-55%[inhibitor],-1.4,-2,-0.4%,-2,3%,12%
CN(Cc1ccccn1)C(=O)c1cc(COc2ccc(F)cc2Cl)on1,-4%,.,-16,0.1%,.,.,.
CSc1ccc(NC(=O)N2CCN(c3nc4ccccc4s3)CC2)cc1,-1%,-0.4,-6,0.6%,4,1%,15%
O=C(NCC(O)CN1CCOCC1)c1ccc([N+](=O)[O-])cc1 (stereo not given),3%,6.5,-2,-1.3%,-11,4%,19%
Clc1ccccc1COc1ccccc1-c1nnco1,-13%,0.6,-13,0.3%,11,3%,17%
O=C(CN1CCN(c2ccccc2O)CC1)NNC(=O)c1ccc(Cl)cc1,-62%[inhibitor],1.6,3,1.8%,4,-7%,1%
O=c1[nH]c2ccc(S(=O)(=O)N3CCN(c4ccccc4)CC3)cc2[nH]c1=O,-18%,2.2,-9,-10%,-7,2%,0%
Cc1c(Cl)cccc1-n1c(SCC(=O)NCc2ccccc2Cl)nnc1-c1ccncc1,-2%,-13,7,-11%,-10,-11%,-19%
COc1cccc2cc(C(=O)C3=C(O)C(=O)N(CCN(C)C)C3c3ccc(F)cc3)oc12 (stereo not given),34%,1.3,-13,-0.2%,.,26%,6%
COc1ccccc1CNC(=O)c1ccc2c(=O)n3c(nc2c1)CCCCC3,17%,-5.4,-2,-3.1%,-4,10%,9%
Cc1ccc(C(=O)N/C(=C/c2ccccc2)C(=O)NC(Cc2ccccc2)C(=O)O)cc1 (stereo not given),0%,6.7,-18,-0.8%,-2,6%,24%
CC(=O)C1C(c2ccccc2Cl)NC(=O)NC1(O)C(F)(F)F (stereo not given),-3%,-1.6,-3,0.8%,0,8%,1%
O=C1O[C@@H]([C@H](O)CO)C(O)=C1O,.,.,-6,-1.3%,.,-11%,.
O=C1/C(=C/c2cccnc2)SC(=S)N1C1CCS(=O)(=O)C1 (stereo not given),6%,2.4,-17,0.8%,-1,-14%,?
CCC(=O)Nc1ccc(-c2nnc(SCC(=O)NCC3CCCO3)n2C)cc1 (stereo not given),0%,1.5,5,2.3%&0.2%,-7,5%,11%
O=C(COC(=O)COc1ccccc1[N+](=O)[O-])Nc1ccc(S(=O)(=O)N2CCCCC2)cc1,-12%,1.0,0,2.2%,-3,-9%,9%
Cc1cc(=O)oc2cc(OC(=O)c3ccccc3)ccc12,.,-0.8,-30,4.3%,-13,-4%,-4%
CCOc1cccc(N2C(=O)CC(NNC(=O)c3ccc(Br)o3)C2=O)c1 (stereo not given),7%[15.4 µM],6.0,-6,.,5,6%,5%
O=C(OCc1cn(-c2ccc(Cl)c(Cl)c2)nn1)c1ccccc1,-24%,1.3,-9,0.6%,0,-3%,-16%
O=c1[nH]c(=O)n(C2OC(CO)C(O)C2O)cc1Br (stereo not given),8%[15.4 µM],-2.0,-9,.,-3,2%,16%
CN(C(=O)c1ccc(Oc2ccc([N+](=O)[O-])cc2)cc1)C1CCCCC1,-34%,-0.7,1,-2.8%,-19,?,2%
CC[C@H]1C(O)C[C@H]2CCN3C(=O)CCC[C@H]1[C@H]23 (stereo not given in full),.,1.2[94.6 µM],.,0.8%,.,-1%,7%
CCCC(=O)NC(Nc1c(C)n(C)n(-c2ccccc2)c1=O)C(Cl)(Cl)Cl (stereo not given),-29%,-0.9,-1,0.5%,1,4%,23%
COc1c(C(=O)Nc2ccccc2N2CCOCC2)cc2ccccc2c1Br,-21%,.,-2,?,.,-23%,.
CC(C)(CO)NC(=O)CCCOc1ccc(Cl)cc1Cl,9%,2.4,-2,-1.2%,-12,-1%,15%
Cc1ccc(S(=O)(=O)N2CCC(C(=O)OC(C)C(=O)NC3CCCCC3C)CC2)cc1C (stereo not given),-112%[inhibitor],.,-2,0.6%,-1,-15%,.
N#Cc1c(SCC(N)=O)nsc1SCc1ccccc1Cl,-33%,5.3,-6,-11%,-12,-14%,-4%
O=C1c2ccccc2-c2cc(Br)ccc2NC1O (stereo not given),30%,.,-4,1.8%,.,.,.
CC(=C1SC(=S)NC1=O)c1ccccc1,6%,.,-11,-2.4%,.,-1%,.
C=CCn1c(SCC(=O)N2CCOCC2)nc2sc3c(c2c1=O)CCCC3,35%,1.0,-12,-0.8%,-3,-13%,4%
O=C(OCC(=O)N1CCC(Cc2ccccc2)CC1)c1cncc(Br)c1,-14%,.,-2,-1.2%,.,5%,.
c1cncc(C2SCCCS2)c1,?,.,-7,0.6%,.,.,.
C#CCOCCOCCOCCNc1nc(N2CCN(C(=O)[C@H](CCCCN)n3cc([C@@H](N)C(C)CC)nn3)CC2)nc(N2CCN(C(=O)[C@H](Cc3ccc(O)cc3)n3cc([C@@H](N)C(C)CC)nn3)CC2)n1 (stereo not given in full),.,0.8,-9,1.3%,-21,-5%,-4%
COc1cccc(S(=O)(=O)N2CCN(Cc3ccc4c(c3)OCO4)CC2)c1,9%,4.1,5,-0.3%&-1.7%,-21,-3%,-8%
COc1cc(NC2c3ncccc3C(=O)N2Cc2ccco2)cc(OC)c1OC (stereo not given),5%,1.9,-3,.,-5,-9%,-30%
O=C(NCCN1CCN(C(=O)c2cccc(OC(F)F)c2)CC1)c1cccc(OC(F)F)c1,0%,.,-11,-1.7%,.,-13%,.
CC(C)n1c(-c2cccnc2)nc2cnccc21,27%,1.6,-14,-11%,-6,18%,10%
Cc1cc(NC(=O)c2cncc(Br)c2)ccc1NC(=O)c1cc2ccccc2o1,21%,-6.5,1,65%,-11,1%,-15%
Clc1ccc(-c2nnc(-c3ccccc3)o2)c(Cl)c1,12%,6.5,-8,?,-19,10%,-10%
Cc1cc(C)c(C(=O)CC(=O)c2ccccc2Cl)c(O)c1,-25%[15.4 µM],2.9,-17,?,11,7%,?
COC(=O)Nc1sccc1C(=O)Nc1sccc1C(=O)OC,3%,16,-2,0.1%,.,4%,-8%
COCCn1c(SCC(=O)c2c(N)n(C)c(=O)n(C)c2=O)nc2ccccc21,23%[15.4 µM],-2.2,-6,.,2,-9%,2%
Cc1c(Cl)c([N+](=O)[O-])nn1CC(=O)NC(C)c1ccccc1 (stereo not given),-17%,2.9,-37,0.4%,2,1%,7%
CCc1nnc(NC(=O)CSc2nc(-c3ccccc3)cc(-c3ccc(OC)cc3)c2C#N)s1,11%,7.2,-10,-3.2%,12,-6%,-1%
CC1CCCN(C(=O)CCNS(=O)(=O)c2ccc3c(c2)c(=O)n(C)c(=O)n3C)C1 (stereo not given),21%,-7.4,-7,-18%,-2,-3%,12%
CCOC(CNC(=O)c1ccc2c(c1)ncn2-c1cccc(F)c1)OCC,-68%[inhibitor],5.4,-1,.,-2,2%,15%
COCCN1CCC(CNCc2c(C(=O)N3CCCCC3)nc3c(C)cccn23)C1 (stereo not given),7%,-18,-9,-3.4%,0,-1%,11%
CCN(c1ccccc1)S(=O)(=O)c1ccc(C(=O)Nc2nnc(C3CC3)o2)cc1,10%[15.4 µM],-3.4,-13,.,4,-3%,33%[activator]
CC(CC(=O)O)CC(=O)Nc1nncs1 (stereo not given),-3%[15.4 µM],5.1,-9,.,-14,5%,4%
CCC(Cc1ccccc1)NS(=O)(=O)c1csc(C(N)=O)c1 (stereo not given),-17%,-0.7,-4,-1.9%,-3,12%,19%
CC1C(=O)NN=C1C(=O)N/N=C/c1ccco1 (stereo not given),2%[15.4 µM],-2.2,-4,.,-6,-16%,-28%
COC(=O)/C=C/CSC1=N/C(=C/c2ccc(-n3cncn3)cc2)C(=O)N1,-20%,1.2,-24,6.0%,3,8%,-20%
CCOc1ccc(C(=O)NCC(=O)NCC(c2ccc(OC)cc2)N2CCOCC2)cc1OCC (stereo not given),-31%[inhibitor],.,-10,-2.4%,0,7%,.
CCOc1ccc(C(C)NC(=O)CN2C(=O)NC3(CCCCC3)C2=O)cc1OCC (stereo not given),-32%[inhibitor],.,0,-0.3%,-1,-4%,.
COc1ccc2nc(NC(=O)c3cc(C)oc3C)sc2c1,18%,-0.3,-6,?,-10,4%,-5%
COC(=O)c1ccc(C2C(Oc3ccccc3C)C(=O)N2CCc2ccc(OC)c(OC)c2)cc1 (stereo not given),15%,-0.4,-26,1.6%,-1,-12%,21%
O=S(=O)(c1ccccc1)N1CCN(S(=O)(=O)N2CCCCCC2)CC1,-8%[15.4 µM],-9.6,-10,-0.3%,3,11%,14%
Cn1c(=O)c2c(nc(OCCc3ccccc3)n2C)n(C)c1=O,2%[15.4 µM],6.1,-7,.,5,5%,16%

# Single records (already shown). Order of values: gsp ag, Menin MLL FP FL, D2 potentiator, ClpP mod, TRPV1 PAM, gsp antagonist, Sfp PPTase inh
# CC1C(=O)NN=C1C(=O)N/N=C/c1ccco1 (stereo not given) across the screens: 2%[15.4 µM], -2.2, -4, ., -6, -16%, -28%
# Cn1c(=O)c2c(nc(OCCc3ccccc3)n2C)n(C)c1=O across the screens: 2%[15.4 µM], 6.1, -7, ., 5, 5%, 16%
# COC(=O)/C=C/CSC1=N/C(=C/c2ccc(-n3cncn3)cc2)C(=O)N1 across the screens: -20%, 1.2, -24, 6.0%, 3, 8%, -20%
# COC(=O)c1ccc(C2C(Oc3ccccc3C)C(=O)N2CCc2ccc(OC)c(OC)c2)cc1 (stereo not given) across the screens: 15%, -0.4, -26, 1.6%, -1, -12%, 21%

# Screening results deposited in PubChem BioAssay by National Center for Advancing Translational Sciences (NCATS).

# Rows are unselected; overall some 5.1% were active at least once.
